Six1-Eya2 inh = Six1/Eya2 interaction inhibition; AID 651725; Q15475+O00167; activity change, % (concentration not given with the values); actives 0.56% (n = 360,000); AlphaScreen GST-Six1/His-Eya2 binding, biochemical; active compounds read low; control for the full effect not named in the record; in the data active = activity change below about -65%; inconclusive = about -30% to -65%; inactive = above about -30%; further: on the % scale 0 is the no-effect control and ±100 the full control effect
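GST-Six1 + His-Eya2 (5X stock: 250/500 nM); Tris pH 8.0, 300 mM NaCl, 0.05% BSA, 0.02% Tween 20; GSH donor/Ni acceptor beads; 1 h 37 °C dark; AlphaScreen readout.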
D2 ag = human D2 receptor agonism in beta-arrestin assay. P14416. DiscoveRx PathHunter D2 beta-arrestin, luminescence, 90 min; 100% = 57 uM dopamine signal. activation, % (no concentration beside the values). actives 0.084% (n = 360,000). AID 624465; in the data active = activation above about 40%; inconclusive = about 15% to 40%; inactive = below about 15%; further: compound concentration not given in the record; the text of the record calls up to 30% inactive
Target sequence (P14416 whole entry, looked up): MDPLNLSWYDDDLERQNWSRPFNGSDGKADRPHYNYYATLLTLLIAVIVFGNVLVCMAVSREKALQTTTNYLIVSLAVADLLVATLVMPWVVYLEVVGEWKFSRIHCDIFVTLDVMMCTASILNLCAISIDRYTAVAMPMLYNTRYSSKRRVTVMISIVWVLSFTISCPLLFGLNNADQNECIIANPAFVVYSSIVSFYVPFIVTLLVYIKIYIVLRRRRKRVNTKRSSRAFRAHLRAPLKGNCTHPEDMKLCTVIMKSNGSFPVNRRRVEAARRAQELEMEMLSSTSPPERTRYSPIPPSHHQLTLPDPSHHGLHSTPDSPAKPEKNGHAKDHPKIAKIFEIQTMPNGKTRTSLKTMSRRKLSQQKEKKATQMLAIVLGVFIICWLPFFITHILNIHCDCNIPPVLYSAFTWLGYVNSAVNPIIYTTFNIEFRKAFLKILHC
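DiscoveRx PathHunter D2 beta-arrestin cells (2,100/well) attached overnight, then compound-stimulated 90 min at 37 C in HBSS/10 mM HEPES/0.1% Tween-20 buffer; beta-galactosidase complementation read by luminescence after 1 h at ambient temperature. Dopamine 57 uM final (EC100) as control.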
PINK1 expr mod = changes PINK1 expression | actives 0.2% (n = 410,000) | Potency, µM (top dose mostly 76.6 µM), for the others: top-dose activation (PINK1 increase), hits mostly activators | PINK1 immunofluorescence, high-content cytometry, 24 h; active = well fitted activation curve with a large enough effect; inconclusive = small, poorly fitted or top-dose-only effect; inactive = flat fitted curve, though single readings scatter; cell line not stated here;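 further: potency means the concentration at half of the fitted maximal effect; % of control where 0% means no effect; nearly all actives have a fitted effect of over 65% in size; a mitochondrial uncoupler was the plate control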
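Cells are seeded, rested 12 hours, then given compound at five concentrations or DMSO for 24 hours. After fixation, blocking and antibody staining, PINK1 amount and mitochondrial localization are scored; CCCP serves as control.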
TRPML1 inh = human mucolipin-1 channel inhibition; actives 0.02% (n = 390,000); TRPML1-inducible cells, Ca2+ dye fluorescence, FDSS; active compounds read low; inhibition of EC80 agonist-evoked calcium signal; AID 624415; Q9GZU1; activity change, negative = inhibition, % (concentration not given with the values); in the data active means activity change below about -50%; inconclusive means about -30% to -50%; inactive means above about -30%;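 further: stimulus is agonist 54-4 at its EC80 concentration; on the % scale 0 is the no-effect control and ±100 the full control effect; the text of the record puts the active cut at -80%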
Target sequence (Q9GZU1 whole entry, looked up): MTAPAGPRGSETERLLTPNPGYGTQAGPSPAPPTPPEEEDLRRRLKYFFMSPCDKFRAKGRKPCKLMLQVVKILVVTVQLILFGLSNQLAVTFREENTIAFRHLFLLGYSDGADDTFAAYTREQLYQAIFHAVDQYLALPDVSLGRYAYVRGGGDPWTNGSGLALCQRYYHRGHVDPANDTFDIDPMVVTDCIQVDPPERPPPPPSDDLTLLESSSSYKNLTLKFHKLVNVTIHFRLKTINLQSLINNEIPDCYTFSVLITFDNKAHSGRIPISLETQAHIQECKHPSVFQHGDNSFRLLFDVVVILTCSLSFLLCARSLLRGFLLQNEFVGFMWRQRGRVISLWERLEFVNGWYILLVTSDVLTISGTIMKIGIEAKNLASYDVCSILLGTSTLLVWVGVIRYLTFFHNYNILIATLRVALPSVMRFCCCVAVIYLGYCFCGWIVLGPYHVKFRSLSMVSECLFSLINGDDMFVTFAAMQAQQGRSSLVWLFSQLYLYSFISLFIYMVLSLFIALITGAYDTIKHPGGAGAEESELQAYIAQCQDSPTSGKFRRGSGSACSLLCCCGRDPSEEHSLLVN
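Calcium fluorescence in TRPML1-DL cells induced overnight with Tet: a 110 s read after compound pin addition, then a 110 s antagonist read after challenge with 54-4 at 4 uM final (EC80).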
D2 potentiator = human D2 receptor positive allosteric modulation; P14416; DiscoveRx D2 beta-arrestin cells, luminescence, 90 min; 100% = 57 uM dopamine signal; potentiation, % (concentration not given with the values); actives 0.23% (n = 360,000); active = potentiation of 50% or more; inconclusive = 30% to 50%; inactive = 30% or less;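 further: compound concentration not given in the record; tested on top of an EC20 dose of dopamine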
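PathHunter D2 cells, attached overnight at 37 deg C, received compound in DMSO plus dopamine at EC20 (50 nM final) for 90 min at 37 deg C. Beta-arrestin recruitment was read as luminescence after 1 h with detection reagent at ambient temperature.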
TRPML1 agonist = activates the human TRPML1 channel. actives 0.12% (n = 410,000). activation, % (no concentration beside the values). TRPML1-expressing cells, Ca2+ dye fluorescence, FDSS; host cell line not named in the record; reference of the full effect not given here; in the data active = activation above about 50%; inconclusive = about 30% to 50%; inactive = below about 30%; further: 0% is about no effect; the text of the record puts the active cut at 80%
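Tet-induced TRPML1-DL cells, 1,500 per well, cultured overnight, were loaded with a no-wash Ca2+ dye for 45–90 min. Calcium fluorescence was recorded on the FDSS for 110 s after compound addition, before the EC80 agonist (4 uM 54-4) was added.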
Starred values were filed as active, the others as inactive; ? = inconclusive; nt = not tested or not shown; [ ] = dose if it differs, or a comment.

Structure,Six1-Eya2 inh,D2 ag,PINK1 expr mod,TRPML1 inh,D2 potentiator,TRPML1 agonist
COc1ccc(Cn2c(SCc3ccc(C)cc3)nc3cc(OC)c(OC)cc3c2=N)cc1Cl,-9,-5.6,-1.7%,-22,-22,-0.2
O=S(=O)(Nc1ccc2oc(-c3ccccc3)nc2c1)c1ccccc1,-11,2.5,-2.9%[38.3 µM],-5,-7,-0.4
Cc1ccc(NC(=O)C2CCN(C(=O)c3ccco3)CC2)cc1,-3,-2.8,1.4%,8,-15,-0.2
CCOC(=O)c1c(C)oc2nc(C)nc(NCC3CCN(Cc4cccc(C)c4)CC3)c12,nt,nt,1.9%,4,nt,0.2
O=C(O)c1cccc2c1/C(=N/Nc1ccc([N+](=O)[O-])cc1[N+](=O)[O-])c1ccccc1-2,?,-0.5,-1.6%,-6,-4,0.2
Cc1ccccc1Nc1nc(N)nc(CSc2ccccc2)n1,2,9.4,3.0%,-9,-5,0.3
COC(=O)c1c(NC(=O)CN2CCOCC2)sc2c1CCC(C)C2 (stereo not given),-3,-2.8,3.0%,-5,-11,-0.1
Fc1ccc2cnc(-c3ccccc3)c(-c3ccc(C(F)(F)F)cc3)c2c1,7,-1.7,21%,27,-14,1.9
CCOC(=O)CNC(=O)CSc1ncnc2c1cnn2-c1ccc(OC)cc1,-1,-2.8,1.1%,10,22,-0.9
O=c1ccc(-c2ccc(S(=O)(=O)Nc3cccc([N+](=O)[O-])c3)s2)n[nH]1,-4,-7.0,7.7%,2,-5,-0.2
O=C(Nc1cc(=O)[nH]c(=O)[nH]1)c1cccc(C(F)(F)F)c1,4,1.1,3.5%,7,-9,-0.3
O=C(O)c1cccc(-c2ccccc2)c1O,6,0.5,-1.6%,4,-6,0.2
Cc1ccc(CN2CCC(C)(Oc3ccc(Cl)cc3)C2)cc1 (stereo not given),8,8.3,5.7%,nt,-6,-0.6
CC(Cc1cnccn1)NC(=O)c1cc(COc2ccc(F)cc2F)on1 (stereo not given),-1,0.5,0.8%,15,-6,0.6
Nc1ccccc1SC1CC(=O)N(c2ccc(Cl)c(Cl)c2)C1=O (stereo not given),0,0.4,3.8%,13,-28,0.7
CC(NS(=O)(=O)c1ccc(Cl)cc1)C(=O)NCc1ccco1 (stereo not given),1,-1.2,-2.2%[38.3 µM],3,-4,-0.4
CCn1c(=N)n(CC(=O)C23CC4CC(CC(C4)C2)C3)c2ccccc21,-2,0.0,0.2%,-12,-37,0.3
COc1ccc2nc(NC(=O)c3ccc(NC(=O)C4CCCO4)cc3)sc2c1 (stereo not given),-1,4.8,8.1%,-7,0,-0.8
O=C(CSc1nccc(=O)[nH]1)NCc1ccco1,-3,5.4,-0.5%,12,13,0.3
Cc1ccc(CCNC(=O)C2CCCN(c3nc4ccccc4o3)C2)cc1 (stereo not given),2,0.7,?,21,-14,2.1
COc1ccc(-c2ccc(C(=O)NCc3ccco3)c3occc23)c(C)c1,-5,4.9,4.3%,nt,-8,1.3
O=C(CC1C(=O)NCCN1CCCc1ccccc1)NCCc1ccccc1F (stereo not given),1,-5.5,1.2%,1,-19,0.2
CN1CCN(C(=O)c2cc(C(C)(C)C)cc(C(C)(C)C)c2)CC1,7,0.5,2.6%,26,-8,0.2
COc1ccc(-n2c(-c3ccc(F)cc3)cn3c4c(=O)n(C)c(=O)n(C)c4nc23)cc1,nt,nt,1.0%,-13,nt,-0.6
O=C(COC(=O)CCCOc1ccc(Cl)cc1Cl)Nc1cccc(Cl)c1,14,-4.8,3.2%,-22,-10,1.0
Cc1ccc(C(=O)NNC(=S)NC(=O)c2ccc(Cl)cc2)cc1,2,-2.4,16%[38.3 µM],-17,-17,61*
NNC(=O)c1sccc1OCc1ccc(Cl)cc1,11,-2.2,1.6%,19,-5,-0.4
CCn1c(C(=O)N2CCC(C(=O)NCCc3ccc(C)cc3)CC2)cc2sccc21,nt,nt,-1.4%,10,nt,0.3
CC(C[N+](C)(C)C)OC(=O)C1(c2ccccc2)CCCC1 (stereo not given),-1,-5.8,1.9%,2,-18,-0.3
O=C(c1ccc(Cl)cc1Cl)N1CCN(c2ccccn2)CC1,-12,1.3,0.6%,11,-5,-1.4

Whole records as entered above.
O=c1ccc(-c2ccc(S(=O)(=O)Nc3cccc([N+](=O)[O-])c3)s2)n[nH]1 reads Six1-Eya2 inh = -4; D2 ag = -7.0; PINK1 expr mod = 7.7%; TRPML1 inh = 2; D2 potentiator = -5; TRPML1 agonist = -0.2
O=C(CSc1nccc(=O)[nH]1)NCc1ccco1 reads Six1-Eya2 inh = -3; D2 ag = 5.4; PINK1 expr mod = -0.5%; TRPML1 inh = 12; D2 potentiator = 13; TRPML1 agonist = 0.3
CCOC(=O)CNC(=O)CSc1ncnc2c1cnn2-c1ccc(OC)cc1 reads Six1-Eya2 inh = -1; D2 ag = -2.8; PINK1 expr mod = 1.1%; TRPML1 inh = 10; D2 potentiator = 22; TRPML1 agonist = -0.9

(cont.)
Structure,Six1-Eya2 inh,D2 ag,PINK1 expr mod,TRPML1 inh,D2 potentiator,TRPML1 agonist
CCn1c(=O)sc2cc(NS(=O)(=O)c3ccc(C)cc3)ccc21,nt,nt,1.1%,12,nt,-0.4
CCN(CC)S(=O)(=O)c1cc(C(=O)Nc2cc(C)[nH]n2)ccc1Cl,16,0.6,-2.0%,-22,-4,1.3
COc1ccc(/C(C)=N/NC(=O)CNC(=O)/C=C\c2ccccc2OC)c(OC)c1,-7,-1.4,0.1%,-11,-7,4.0
COc1ccc(OC)c(S(=O)(=O)N/N=C\c2c[nH]c3ccccc23)c1,6,-1.0,3.4%,9,14,-0.2
Cc1ccc(C2(C)NC(=O)N(CC(=O)NCc3cccc(Cl)c3)C2=O)cc1 (stereo not given),-11,-4.1,-0.2%,nt,-10,nt
CCOC(=O)N1CCN(S(=O)(=O)c2cc(Br)cnc2N)CC1,3,-2.3,0.1%,-7,0,-0.3
O=C(COC(=O)c1ccccc1Cc1ccccc1)NC1CCS(=O)(=O)C1 (stereo not given),16,0.1,0.6%,-5,-10,0.9
Cc1nccc(-c2cccc(NC(=O)c3ccccc3Cl)c2)n1,-15,-9.5,-1.4%,-22,-6,0.2
Cc1sc(NC(=O)CSc2nc(N)cc(N)n2)c(C#N)c1C,-1,2.4,2.2%,nt,-1,nt
N#CC(Cc1cccc(CC(C#N)(c2ccccc2)c2ccccc2)c1)(c1ccccc1)c1ccccc1,0,-2.5,-0.6%,3,-11,0.1
CC12CC(NC(=O)N1c1cccc(C(=O)Nc3ncn[nH]3)c1)c1ccccc1O2 (stereo not given),0,-2.8,0.5%,-3,10,-0.1
CCc1nc(SCC(=O)Nc2ccccc2OC)c2c(C)c(C)sc2n1,-8,-6.0,-2.1%,?,9,-1.1
C=CCNC(=S)NNC(=O)c1cccn(Cc2ccc(Cl)c(Cl)c2)c1=O,-23,-4.0,4.8%[38.3 µM],3,-17,-0.2
CCc1ccc(NC(=O)CSc2nc3ccccc3c(=O)n2CCNC(C)=O)cc1,nt,nt,1.9%,-1,nt,0.1
COc1ccc(-c2[nH]ncc2/C=C(/C#N)C(=O)NC2CCCCC2)cc1,-2,-3.1,3.5%,-4,12,2.7
CC(=O)Nc1cccc(NC(=O)c2ccccc2Cl)c1,2,3.9,9.1%,-13,2,-0.4
CCOC(=O)N1CCN(C2OC(=O)c3ccccc32)CC1 (stereo not given),3,-0.4,-1.1%,52,-13,-0.7
O=C(CSc1ccccc1)NNC(=O)c1ccncc1,7,-0.2,-3.3%,4,1,1.3
COc1ccc(CCC(C)Nc2ccc(F)c(F)c2)cc1 (stereo not given),11,-1.5,8.5%,-2,-9,0.4
COc1cc(C(=O)Nc2ccc(OCc3cc(=O)n4cc(C)sc4n3)cc2)cc(OC)c1OC,nt,nt,2.6%,-6,nt,-1.4
COc1ccc(OC)c(S(=O)(=O)N2CCC(c3nc4ccccc4[nH]3)CC2)c1,4,0.1,0.6%,2,-5,2.8
COc1cc(-c2nc(CN3CCN(CC(C)C)C(=O)[C@@H]3C)c(C)o2)ccc1F,3,-3.2,1.1%,1,-7,-0.7
Cc1ccc(SCc2nnc(N)s2)cc1,18,-0.1,2.3%,-21,29,-1.2
COc1ccc2[nH]c(=O)c(CN(CC3CCCO3)S(=O)(=O)c3ccccc3)cc2c1 (stereo not given),8,1.8,1.9%,7,1,-0.7
CCOc1ccc(NC(=O)COC(=O)C2CC2C)cc1 (stereo not given),5,-1.1,0.2%,-7,-7,-1.2
S=C(Nc1ccc2cn[nH]c2c1)Nc1ccc(Cl)cc1Cl,-8,1.6,1.5%,10,4,2.6
O=S(=O)(NCC1CCCO1)c1ccc(S(=O)(=O)N(Cc2ccc(F)cc2)C2CCCCC2)cc1 (stereo not given),0,-0.4,9.3%[38.3 µM],2,-8,-0.2
O=C(NCc1ccc(OC(F)(F)F)cc1)C1CC2Cn3c(nc4ccccc43)C2N1Cc1ccccc1 (stereo not given),-2,-1.0,2.8%,-12,-9,1.6
COCCNC(=O)C1CC(c2ccc([N+](=O)[O-])cc2)=NO1 (stereo not given),8,-4.4,0.1%,-14,-1,-0.4
Cc1cc(C)c2oc(-c3cccc(NC(=O)c4ccc(-c5cccc([N+](=O)[O-])c5)o4)c3)nc2c1,nt,nt,-0.5%,-13,nt,1.2
Cc1ccc(CSc2nc3cc(C(=O)NC4CCCC4)ccc3c(=O)n2Cc2ccccc2)cc1,nt,nt,1.4%,-8,nt,-0.7
CCOC(=O)C(C(=O)OCC)N(C#N)c1nc(OC)nc(N(C)C)n1,2,1.4,-0.1%,-20,-1,-0.3
Cn1nc(C(=O)NC2CCCN(Cc3ccccc3F)C2)c2ccccc2c1=O (stereo not given),-6,-4.4,0.6%,-6,-28,-0.6
Cc1noc(C)c1NC(=O)N(C)C[C@@H]1OCc2cnnn2CCCC(=O)N([C@H](C)CO)C[C@@H]1C,4,-0.1,0.0%,nt,nt,nt
COC(=O)c1nnn(-c2nonc2N)c1COc1ccc(C=O)cc1OC,0,4.2,1.9%,-2,5,0.7
Cc1ccc(-n2c3c(c(=O)[nH]c2=O)C(C(F)(F)F)(C(F)(F)F)NC(=O)N3)cc1,3,1.1,-4.3%,-11,3,-0.9
CSC1=N/C(=C\c2ccccc2Cl)C(=O)N1N(C)C,-9,-3.8,3.4%,11,-11,5.8
CCc1ccccc1NC1Nc2cc(C)nn2S1 (stereo not given),-3,-3.9,1.1%,5,-8,-0.4
Cn1c(NC(=O)/C=C/c2c(F)cccc2Cl)cc(=O)n(C)c1=O,-4,6.6,-0.8%,3,-3,1.1
O=C(NCC1(c2ccccc2)CCOCC1)c1cccs1,-9,2.5,-1.4%,7,5,-0.3

Screening data (PubChem)
